# NPYLR7 ag: agonists of mosquito NPYLR7 receptor, primary screen, cell-based, Aedes aegypti, calcium fluorescence, mosquito biting behavior; Aedes aegypti neuropeptide Y-like receptor 7 (NPYLR7); HEK293T NPYLR7/Galpha15, GCaMP6s calcium fluorescence; activation, % at 10 µM; 0.15% of 270,000 active; AID 1259423, 2018; in the data active means activation above about 40%;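 further: 0% = vehicle and 100% = reference agonist at the receptor; some compounds past the cut are filed as inactive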
# NPYLR7 ag max-min: second read-out of NPYLR7 ag, no call of its own (marks repeat the call); activation, %; measured here: Max-Min RFU normalised activation; some inactives read as strong as hits;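 span of the calcium signal over five minutes; 0% = vehicle and 100% = native peptide agonist; compound fluorescence can raise it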
# Numbers without * were called inactive.
SMILES,NPYLR7 ag,NPYLR7 ag max-min
CCn1c(C)cc(C(O)=CS(=O)(=O)Cc2cc(Cl)c3c(c2)OCO3)c1C,-7,-5
Nc1nc(N=Cc2ccc(F)cc2)n[nH]1,16,14
NC(=O)c1ccc(CNc2ccccc2Sc2ccccc2)cc1,1,3
Cc1noc(C)c1CN(C)C(=O)/C=C/c1ccc(OCC(N)=O)cc1,18,20
CCSc1nnc2c(n1)OC(C1CC=C(C)CC1C)Nc1ccccc1-2 (stereo not drawn),-8,-11
COc1cccc(CNC(=O)Cn2c3ccc(C)cc3c3ncn(Cc4ccccc4)c(=O)c32)c1OC,3,-2
COc1ccc(C(O)CNC/C=C/c2ccccc2)cc1 (stereo not drawn),-3,-4
CCCn1c(SC(C(=O)c2ccccc2)c2ccccc2)n[nH]c1=O (stereo not drawn),2,2
CN(C)S(=O)(=O)c1cccc(NC(=O)COC(=O)c2cccn2C)c1,-1,-2
O=C(NN=Cc1ccc([N+](=O)[O-])cc1)c1cc(-c2ccc(Cl)cc2)n[nH]1,-4,-6
COc1cccc(-c2cnc(C(O)c3ccccc3)[nH]2)c1 (stereo not drawn),0,-3
CN(CC1CCN(CCc2ccc(Cl)cc2)CC1)C(=O)CC1NC(=O)c2ccccc21 (stereo not drawn),3,-1
Cc1ccc(N2C3=[N+](CCCCC3)CC2(O)c2ccc(OC(F)F)cc2)cc1 (stereo not drawn),1,68
CCCCC(=O)N(C)c1c(F)cccc1C(=O)O,8,4
NC(=O)c1nc(-c2cccc(Cl)c2)nc2c1[nH]c(=O)n2-c1ccc2c(c1)OCO2,-6,-9
COCCNC(=O)[C@@]1(OCc2ccccc2C)CC(OCc2ccccc2)[C@@H]2OC(C)(C)O[C@@H]2C1 (stereo partly drawn),21,10
O=S(=O)(c1ccc2c(c1)OCCO2)N1CCN(Cc2nnc(-c3ccco3)o2)CC1,-5,19
CC(C)NC(=O)N1CCN(c2ccc(C(F)(F)F)cn2)CC1,5,1
Cc1noc(C)c1S(=O)(=O)N1CCN(c2ncccn2)CC1,10,17
CCC(=O)Nc1ccc(-c2c(-c3ccccc3F)[nH]n(-c3cccc(F)c3)c2=O)cc1,24,19
Cc1cc(C)cc(-n2ccc3nc(N4CCOCC4)ncc3c2=O)c1,-2,-2
Oc1ccc(-c2cnc3ccncc3n2)cc1,-7,-7
Cc1nc2ncc3c(=O)n(-n4cnnc4)ccc3n2n1,4,9
O=C(NCCCn1nc(-c2ccccc2)ccc1=O)C1CC1,2,1
CCOC(=O)c1ccc(NC(=O)N(Cc2ccc(OC)c(OS(=O)(=O)CC)c2)C(C)C)cc1,-1,9
CN(C)CCCNc1ncnc2sc3c(c12)CCCC3,2,-1
CC(NCc1ccccc1F)C(=O)Nc1c(Cl)cc(Cl)cc1Cl (stereo not drawn),10,10
O=C1c2ccc([N+](=O)[O-])cc2C(=O)N1CNc1ccc(Br)cc1,14,0
CCN1C(=O)c2cccc3c(S(=O)(=O)Nc4ccccc4C)ccc1c23,-1,-2
COCCN(CC1CCN(Cc2ccccc2OC)CC1)C(=O)C=C(C)C,13,2
Cc1noc(C(C)C)c1C(=O)NCCc1ccc(Cl)s1,0,0
CCOC(=O)C1CCCN(C(=O)c2coc(CN(Cc3ccc4c(c3)OCO4)Cc3cc(OC)ccc3OC)n2)C1 (stereo not drawn),12,10
CCOc1ccc(NC(=O)NCc2nnc(SCc3cccc(OC)c3)n2-c2ccc(C)cc2)cc1,-2,7
CC1CCCCN1CCCNC(=O)c1ccc(CSc2nc(Cl)cc(N3CCOCC3)n2)cc1 (stereo not drawn),9,7
CN1CCN(c2cc(-c3cc(C(F)(F)F)cc(C(F)(F)F)c3)nc3ccnn23)CC1,0,-5
COc1cc(OC)cc(OS(=O)(=O)c2c(C)cc(C)cc2C)c1,8,5
CC1=NN(CC(=O)NC(c2nccn2C)C(C)C)CC1 (stereo not drawn),16,11
CCSc1nc(=O)n(CCO)c2c1CCCC2,-7,-14
CNC(=O)Cc1ccccc1NC(=O)NC1CC(C)CCC1C(C)C (stereo not drawn),2,0
CN1CCC(=NNc2c([N+](=O)[O-])cc(C(F)(F)F)cc2[N+](=O)[O-])CC1,5,4
O=C(NC1CCN(c2ccccc2C(=O)N2CCc3ccccc3C2)CC1)c1ccc(C(F)(F)F)cc1,26,28
COc1ccc(-c2cc3cc(OC)c(OC)cc3c[n+]2C(C)C(=O)O)cc1 (stereo not drawn),8,2
O=C(O)CSc1nnc(Cc2ccccc2F)n1-c1ccccc1Cl,7,4
COc1ccc(-n2c(C)c(C)n3c4c(=O)[nH]c(=O)n(C)c4nc23)c(OC)c1,3,4
CCC1CCCCN1C(=O)c1nn2c(C(F)(F)F)cc(-c3ccco3)nc2c1Cl (stereo not drawn),-2,-10
CCC(C)N(Cc1cccc(OS(C)(=O)=O)c1)C(=O)Nc1ccc(C(C)C)cc1 (stereo not drawn),-3,1
COc1ccccc1N1CCN(C(=O)c2csc(CSc3nnc(-c4ccco4)n3-c3ccccc3F)n2)CC1,-3,4
Cc1nc(-c2ccc(OCC(C)C)c(C#N)c2)sc1C(=O)O,-1,3
CCc1ccc[n+](C2=C(c3c(CC)[nH]n(-c4ccccc4)c3=O)C(=O)N(CC(C)C)C2=O)c1,1,2
COc1ccc(-n2c(SCC(=O)N3CCN(C(=O)/C=C/c4ccccc4)C(C)C3)nnc2-c2ccc(C)cc2)cc1 (stereo not drawn),-3,2

# Next part
SMILES,NPYLR7 ag,NPYLR7 ag max-min
CC1CCN(C(=O)CN2C(=O)NC3(CCCCCC3)C2=O)CC1,-3,-10
C[C@@H](NC(=O)c1ccc(-n2nc(-c3ccc(Cl)c(Cl)c3)cc2N)cc1)C(C)(C)C,7,-1
CC(Oc1cccc(F)c1)C(=O)N(Cc1ccccc1)C1CCS(=O)(=O)C1 (stereo not drawn),3,1
O=C(NCc1cccnc1)c1ccc(Br)c(S(=O)(=O)N2CCCCC2)c1,-1,-4
CC(Cn1cc2ncccc2c1O)(c1ccccc1)c1ccccc1,-3,-2
Fc1cc(N2CCCCCC2)nc(N2CCCCCC2)n1,-2,-1
CCCC1SCCN1C(=O)c1cc2ccccc2c(=O)[nH]1 (stereo not drawn),1,0
O=C(c1ccc(Cn2cnnn2)cc1)N1[C@H]2CCNC[C@@H]1CC2,1,-1
COc1ccccc1C(C)NC(=O)N1CCN(C(=O)C2CCC2)CC1 (stereo not drawn),-1,-2
CNc1cncc(-c2ccc(CN(C)C)cc2)n1,6,2
CC(=O)c1c(-c2ccc(Cl)cc2)c2ccccc2n(C)c1=O,-9,-9
O=C1NC2(CCN(C(=O)C3CCC3)CC2)Nc2cc(Cl)ccc21,1,10
O=P(c1ccccc1)(c1ccccc1)C1COCCO1 (stereo not drawn),-8,-20
COc1cc(C(=O)N2C(C(=O)NC(C)C)CSC2c2ccc(F)cc2)cc(OC)c1OC (stereo not drawn),17,10
CC(C)C(=O)N1CCCC1(C)C(=O)Nc1ccc(-n2cccc2)cc1 (stereo not drawn),4,0
O=C(NCCn1ncc2c(=O)n(Cc3ccccc3)cnc21)c1ccco1,-1,-5
COc1ccc(OC)c(-n2c(CNC(=O)c3ccco3)nnc2SCC(=O)Nc2nc3ccccc3s2)c1,7,5
CC(C(=O)Nc1cccc(S(N)(=O)=O)c1)N1CCC(N2CC=CC2)CC1 (stereo not drawn),8,5
COCCN=c1scc(-c2ccc(F)cc2)n1N=Cc1c(OC)cc(OC)cc1OC,7,5
Cn1cnc2c1c(=O)n(CC(=O)N1CCCC1c1cccs1)c(=O)n2C (stereo not drawn),10,14
CCOC(=O)N1CCN(C(=O)CC(c2ccc(F)cc2)c2cn(CC)c3ccccc23)CC1 (stereo not drawn),3,6
COC(=O)[C@]1(Cc2ccccc2)N[C@H](c2cncn2C)[C@@H]2C(=O)N(C)C(=O)[C@@H]21,8,7
CCOc1ccc(CC(=O)NNC(=O)c2ccc(=O)n(Cc3ccc(Cl)cc3)c2)cc1,-14,-20
COc1ccc(S(=O)(=O)NCCCN2CCOCC2)cc1N1CCN(C(=O)C2(c3ccc(Cl)cc3)CCCC2)CC1,15,15
Cc1ccc(Nc2ccc(N3CCN(C(=O)c4cccc([N+](=O)[O-])c4)CC3)nn2)cc1,2,5
CSc1nsc(NC(=O)N2CCCC2)n1,1,680
CCN1C(=O)NC(c2ccc([N+](=O)[O-])cc2)C(C(=O)OCCc2ccccc2)=C1C (stereo not drawn),-1,-4
Cc1c(C(=O)N2CCN(C(=O)C3CC3)CC2)cc(-c2ccccc2)n1-c1ccccc1Cl,-5,-3
Cc1ccc(-c2noc(N3CCCC3)c2CN(C(=O)C2CCCC2)C(C)C)cc1,16,13
CCOc1ccccc1N1CCN(C(=O)COc2ccc(Cl)cc2)C(C)C1=O (stereo not drawn),10,20
CCN(CC)CCN(Cc1cccs1)C(=O)Nc1cc2c(cc1Cl)OCCO2,4,1
COc1ccccc1OCCSc1nc2ccccc2n1CCOc1ccc(C)cc1,-3,-1
COc1cccc(C(=O)CSc2nnc(-c3ccccc3Cl)n2-c2ccccc2C)c1,2,8
O=c1oc2c(Cl)cc(Cl)cc2cc1-c1nnc(-c2cccc(F)c2)o1,3,-1
O=C(CCn1ccc(=O)[nH]c1=O)N1CC(c2ccccn2)C1,17,5
CCOC(=O)C(C)n1cnc2sc3c(c2c1=O)CCC3 (stereo not drawn),14,7
CSc1ccc(CN2CCC2(C)C(=O)NC2CCc3ccccc32)cc1 (stereo not drawn),-5,-9
CCCn1c(=O)c2[nH]c(-c3ccc(S(=O)(=O)O)cc3)nc2n(CCC)c1=O,6,-13
CCSC1=C(C#N)C2(CCCC2)C(C#N)C(=O)N1 (stereo not drawn),0,-2
COc1ccc(C2c3cccn3CCCN2Cc2ccc(F)c(Cl)c2)cc1 (stereo not drawn),4,15
CNc1ncc(CN(C)C(=O)c2cn[nH]n2)cn1,-2,-2
COc1cc(C=C2C(=O)Nc3ccc(Cl)cc32)cc(Cl)c1OC(F)F,9,5
O=C(NCCn1cccc1)c1ccc(Cl)c(F)c1,30,25
CCC(=O)Nc1cccc(C(=O)N2C[C@]3(C)C[C@H]2CC(C)(C)C3)c1,-1,-3
CCOC(=O)c1c(NC(=O)C23CC4CC(CC(C4)C2)C3)sc(C(=O)Nc2cccc(OC)c2)c1C,-6,-4
CCN(Cc1cc(C)c(OCc2cccc(C)c2)c(C)c1)C(=O)C1COCCO1 (stereo not drawn),-4,-6
CC(c1ccc(Cl)cc1)N(C)C(=O)Nc1ccc(-c2nnnn2C2CC2)cc1 (stereo not drawn),8,2
COc1ccc(CN2CCN(Cc3cccn3-c3cccnc3)CC2CCO)cc1C (stereo not drawn),10,0
COCC(=O)Nn1ccc2c(nnc3c(-c4ccc(Cl)cc4)cnn32)c1=O,1,2
CN(Cc1nc2ccccc2c(=O)[nH]1)C(=O)c1ccc(F)cc1,-9,-11

# More structures
SMILES,NPYLR7 ag,NPYLR7 ag max-min
CC(NC(=O)c1ccc2c(c1)CC(C)N2S(C)(=O)=O)c1ccc(Cl)c(Cl)c1 (stereo not drawn),-1,-2
CC(C)Oc1cccc(-c2ccc(N)nc2)c1,2,-2
COc1cccc2cc(-c3nnc(Nc4ccc(Oc5ccccc5)cc4)s3)c(=O)oc12,-6,-12
O=S(=O)(c1ccc(Cl)cc1)N1CCN(c2nc3nccc(-c4cccc(C(F)(F)F)c4)n3n2)CC1,14,8
Cc1nn(-c2ccccc2)c(C)c1NC(=O)Cn1nc(-c2ccccc2)oc1=O,6,4
O=C(CCC(=O)N1CCc2c([nH]c3ccccc23)C1)N1CCC(O)(c2ccccc2)CC1,-6,-10
CCOC(=O)c1nn(Cc2cccc(OC)c2)c2c1CN(C(=O)c1[nH]c(C)cc1C)CC2,15,2
CCCC1(c2ccccc2)NC(=O)N(Cc2cc3c(cc2Br)OCO3)C1=O (stereo not drawn),1,4
Cc1ccccc1Cn1ccnc1CNCC(C)C,-2,8
O=C(CCn1nnc2ccccc21)N1CCCC(c2ccn[nH]2)C1 (stereo not drawn),-6,-13
Cc1nc(N(C)CCC(O)c2ccccc2)c2ccsc2n1 (stereo not drawn),2,-3
O=C(c1ccc(F)cc1F)N1CCN(C(C(=O)N2CCSCC2)C2CCCC2)CC1 (stereo not drawn),-2,22
CN(C)CCNC(=O)CCN1C(=O)CSC1c1ccccc1F (stereo not drawn),1,4
O=C(CCSc1ccccc1)NCc1ccc(N2CCCC2=O)cc1,12,-1

# Some of the compounds tested, so the mix of outcomes need not match the whole.
